High-throughput results from PubChem.
TSHR agonist: qHTS Assay for Agonists of the Thyroid Stimulating Hormone Receptor. Thyrotropin receptor (Homo sapiens), P16473. HEK293-CNG-TSHR cells (CNG channel as cAMP sensor), membrane potential dye, cAMP. Potency, µM (top dose mostly 57.1 µM), for inactives: at the top dose activation, hits mostly activators. hit rate 0.48% among 73,000; active = well fitted activation curve of enough size with the parental cells flat; inconclusive = any curve in the parental cells; inactive = parental cells flat and receptor cells flat or falling; also: potency is read from the fitted curve at half-maximal effect; % of control where 0% means no effect; weak receptor curves with flat parental cells got no call and are not listed
Target sequence (P16473 whole entry, looked up): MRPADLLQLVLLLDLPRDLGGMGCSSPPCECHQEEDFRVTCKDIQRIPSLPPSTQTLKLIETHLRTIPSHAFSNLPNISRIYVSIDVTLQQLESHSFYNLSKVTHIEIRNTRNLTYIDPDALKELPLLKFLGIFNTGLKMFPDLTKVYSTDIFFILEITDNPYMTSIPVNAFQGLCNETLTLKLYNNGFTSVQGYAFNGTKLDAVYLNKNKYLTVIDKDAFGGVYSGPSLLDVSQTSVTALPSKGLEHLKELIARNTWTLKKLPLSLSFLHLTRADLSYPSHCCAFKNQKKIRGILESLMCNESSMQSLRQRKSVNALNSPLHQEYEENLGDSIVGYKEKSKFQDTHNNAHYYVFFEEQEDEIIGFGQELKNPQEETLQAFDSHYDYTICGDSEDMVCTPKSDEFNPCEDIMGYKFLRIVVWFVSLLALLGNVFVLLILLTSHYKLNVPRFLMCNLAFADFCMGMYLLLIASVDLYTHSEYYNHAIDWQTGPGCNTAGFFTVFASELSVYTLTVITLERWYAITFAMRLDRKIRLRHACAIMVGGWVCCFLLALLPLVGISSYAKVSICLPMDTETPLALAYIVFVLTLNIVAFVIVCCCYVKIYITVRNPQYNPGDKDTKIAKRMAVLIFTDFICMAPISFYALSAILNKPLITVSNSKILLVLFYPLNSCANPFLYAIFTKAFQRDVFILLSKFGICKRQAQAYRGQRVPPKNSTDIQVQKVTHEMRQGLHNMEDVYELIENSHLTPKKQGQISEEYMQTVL
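HEK 293 cells stably expressing TSHR and a modified CNG channel, with CNG-only parental cells as counterscreen, were preloaded 60 min at room temperature with membrane potential dye containing 100 uM RO 20-1724. Compound exposure was 30 min, and depolarization was read as fluorescence at 590 nm.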
A488 autofl: qHTS Assay for Spectroscopic Profiling in A488 Spectral Region; compound autofluorescence, A488 spectral region, dye equivalency; stronger effect = higher value; max dye equivalency, M; hit rate 0.1% among 59,000; active = above 10 nM dye equivalent; inconclusive = 1 to 10 nM; inactive = 1 nM or less; about half of its hits are not listed in these tables;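 also: highest value over a series up to 38 µM; compound alone in buffer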
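Autofluorescence read at ex 480/em 540 nm after 15 min RT in 100 mM Tris pH 8.0; compound signal normalized to A488 standard series on each plate, reported as dye-equivalent concentration at each test concentration.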
AID923: qHTS Assay for Allosteric/Competitive Inhibitors of Caspase-1: Spectroscopic Profiling in AFC Spectral Region; compound fluorescence, AFC spectral region (405/520 nm); almost no hit is shown here; hit rate 1.1% among 75,000; Potency, µM (doses to about 57.5 µM), without a hit: at the highest dose fluorescence increase, hits mostly activators; active = well fitted activation curve with a large enough effect; inconclusive = small, poorly fitted or top-dose-only effect;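 also: potency is read from the fitted curve at half-maximal effect; 0% is about no effect; scaled to a free AFC standard on each plate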
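Baseline compound fluorescence (AFC region, 405 nm ex/520 nm em) taken from the intercept of kinetic reads with 50 nM caspase-1 and 5 uM Ac-WEHD-AFC; normalized to an on-plate AFC standard curve; compounds titrated up to 57 uM.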
Resorufin autofl: qHTS Assay for Spectroscopic Profiling in Resorufin Spectral Region | max dye-equivalent concentration, M | hit rate 0.04% among 59,000 | AID 588, 2007 | Compound fluorescence, resorufin region 547/598 nm, buffer; stronger effect = higher value; active = above 10 nM dye equivalent; inconclusive = 1 to 10 nM; inactive = 1 nM or less; a few of its hits are not listed in these tables; also: highest value over a series up to 38 µM
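Read-out: intrinsic compound fluorescence at ex 547/em 598 nm after 15 min at RT in pH 8.0 Tris (100 mM). Values expressed as resorufin-equivalent concentration from per-plate standard series.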
A647 fluor: qHTS Assay for Spectroscopic Profiling in A647 Spectral Region | Compound fluorescence, A647 channel (570/671 nm), Tris buffer | AID 592, 2007 | max dye-equivalent concentration, M | 59,000 tested, under 10 active; active means above 1 µM dye equivalent; inconclusive means 0.1 to 1 µM; inactive means 0.1 µM or less;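 also: values scaled relative to a standard on each plate; highest value over a series up to 38 µM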
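Buffer was dispensed, compounds and Alexa 647 standards were pin-transferred, and plates sat 15 min at room temperature. Intensity at 570/671 nm was then converted to dye-equivalent concentration using the plate's A647 standard curve.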
An asterisk follows results filed as active; [ ] = dose if it differs, or a comment. The list is partial (hit frequency here may not be typical).

For O=C(Nc1ccccc1)N(CCN1CCOCC1)Cc1cccc(Cl)c1 the results were TSHR agonist inconclusive, A488 autofl inactive, AID923 -0.5%, Resorufin autofl inactive and A647 fluor 2.3e-08.
`O=C(C1CCN(S(=O)(=O)Cc2ccccc2)CC1)N1CCN(c2ncccn2)CC1` gave TSHR agonist -6%, A488 autofl inactive, AID923 -1.9%, Resorufin autofl inactive and A647 fluor 1.5e-08.
Screening CCCOc1ccc(C2c3c(oc4ccccc4c3=O)C(=O)N2CCN(CC)CC)cc1OC (centres undefined) returned A488 autofl inactive, AID923 4.5%, Resorufin autofl inactive and A647 fluor 1.2e-09.
For COc1ccccc1Cn1c2nc3ccccc3nc2c2c(=O)n(CC(C)C)cnc21 the results were A488 autofl inactive, Resorufin autofl inactive and A647 fluor 2.5e-08.
Screening Cc1ccc(-c2noc(C3CCN(S(C)(=O)=O)CC3)n2)o1 returned TSHR agonist 0%, A488 autofl inactive, AID923 -1.4%, Resorufin autofl inactive and A647 fluor 8e-09.
For Cc1nn(CC(=O)NCC2CCCO2)c(=O)c2ccccc12 (centres undefined) the results were TSHR agonist 1%, A488 autofl inactive, AID923 0.4%, Resorufin autofl inactive and A647 fluor 3.4e-08.
`O=C(CN1C(=O)C2(OCCO2)c2ccccc21)c1ccc(F)cc1` gave TSHR agonist 4%, A488 autofl inactive, AID923 0.0%, Resorufin autofl inactive and A647 fluor 1e-09.
For Cc1occc1-c1nc(-c2ccncc2)no1 the results were A488 autofl inactive, AID923 -0.1%, Resorufin autofl inactive and A647 fluor 2e-08.
For Cc1cccc(-c2noc(CCC(=O)NCc3ccccc3)n2)c1 the results were TSHR agonist inconclusive, A488 autofl inactive, AID923 0.0%, Resorufin autofl inactive and A647 fluor 1.4e-09.
`Cc1cc(C)c(C)c(OCC(=O)NCCN(C)C)c1` gave TSHR agonist 8% and AID923 1.1%.
For O=C(NC1CCCCC1)C(c1cccs1)N(Cc1cccs1)C(=O)c1ccco1 (centres undefined) the results were TSHR agonist inconclusive, A488 autofl inactive, AID923 -1.0%, Resorufin autofl inactive and A647 fluor 2.8e-08.
Screening O=C(O)c1nc2nc(Cl)c(Cl)nc2[nH]1 returned TSHR agonist -4%[11.4 µM], A488 autofl inactive, AID923 2.8%[11.5 µM], Resorufin autofl inactive and A647 fluor 6.2e-09.

Overlap with the part before: five entries, followed by the next part.
For Cc1occc1-c1nc(-c2ccncc2)no1 the results were A488 autofl inactive, AID923 -0.1%, Resorufin autofl inactive and A647 fluor 2e-08.
For Cc1cccc(-c2noc(CCC(=O)NCc3ccccc3)n2)c1 the results were TSHR agonist inconclusive, A488 autofl inactive, AID923 0.0%, Resorufin autofl inactive and A647 fluor 1.4e-09.
`Cc1cc(C)c(C)c(OCC(=O)NCCN(C)C)c1` gave TSHR agonist 8% and AID923 1.1%.
For O=C(NC1CCCCC1)C(c1cccs1)N(Cc1cccs1)C(=O)c1ccco1 (centres undefined) the results were TSHR agonist inconclusive, A488 autofl inactive, AID923 -1.0%, Resorufin autofl inactive and A647 fluor 2.8e-08.
Screening O=C(O)c1nc2nc(Cl)c(Cl)nc2[nH]1 returned TSHR agonist -4%[11.4 µM], A488 autofl inactive, AID923 2.8%[11.5 µM], Resorufin autofl inactive and A647 fluor 6.2e-09.
Screening Cc1cc(C(=O)Nc2ccc(N3CCOCC3)cc2)c2ccccc2n1 returned TSHR agonist -2%, A488 autofl inactive, AID923 -1.6%, Resorufin autofl inactive and A647 fluor 4.3e-08.
`Nc1nc2c3ccccc3nc(Cc3ccccc3)n2n1` gave TSHR agonist -2%, A488 autofl inactive, AID923 -1.4%, Resorufin autofl inactive and A647 fluor 3.5e-09.
`COC(=O)[C@@H]1CC[C@H](C)[C@@H](c2ccc(C)cc2)N1C(=O)c1ccc(/C=N\O[C@@H](C)c2cn([C@H]3COC[C@H]3O)nn2)cc1` gave TSHR agonist -4%[11.4 µM] and AID923 -2.0%[11.5 µM].
Screening O=C(CCCCCn1c(=S)[nH]c2cc3c(cc2c1=O)OCO3)N1CCN(Cc2ccccc2)CC1 returned TSHR agonist 8%, A488 autofl inactive, AID923 1.8%, Resorufin autofl inactive and A647 fluor 1e-09.
CCC(C)[C@H](NC(=O)Nc1ccc(C(C)=O)cc1)C(=O)OC (some centres undefined) was read as TSHR agonist -2%, A488 autofl inactive, AID923 -0.4%, Resorufin autofl inactive and A647 fluor 1.1e-08.
Screening Cc1ccccc1OCc1nc(-c2ccc(NC(=O)c3ccco3)cc2)no1 returned TSHR agonist 20%, A488 autofl inactive, AID923 -0.5%, Resorufin autofl inactive and A647 fluor 1e-09.
O=C(CNC1CCCCCC1)Nc1ccc(S(=O)(=O)NC2CC2)cc1 was read as TSHR agonist -5%, A488 autofl inactive, AID923 -0.3%, Resorufin autofl inactive and A647 fluor 4.4e-08.
For CCCCCc1ccc(-c2ccc(=O)[nH]n2)cc1 the results were A488 autofl inactive, Resorufin autofl inactive and A647 fluor 2.3e-09.
Fc1cccc(Cl)c1Cn1nnc2c(N3CCC4(CC3)OCCO4)ncnc21 was read as A488 autofl inactive, AID923 2.0%, Resorufin autofl inactive and A647 fluor 4.7e-08.
CCN(CC)S(=O)(=O)c1ccc(NC2CCCc3ccccc32)nc1 (centres undefined) was read as TSHR agonist inconclusive, A488 autofl inactive, AID923 -0.2%, Resorufin autofl inactive and A647 fluor 1.4e-08.
`O=C1c2ccccc2C(Nc2ccc(S(=O)(=O)N3CCCCC3)cc2)N1c1ccccn1` (centres undefined) gave TSHR agonist 29% and AID923 1.3%.
COC(=O)c1sccc1NC(=O)Cn1cnc2c1c(=O)n(C)c(=O)n2C was read as TSHR agonist 2%, A488 autofl inactive, AID923 -2.5%, Resorufin autofl inactive and A647 fluor 1e-09.
Cn1c(Cn2c(=O)sc3ccccc32)nnc1SCC(=O)N1CCc2ccccc21 was read as TSHR agonist -11% and AID923 -3.8%.
COc1ccc(-c2cc(C(=O)Nc3ccccc3SC)no2)cc1OC was read as TSHR agonist 4%[11.4 µM], A488 autofl inactive, AID923 12%, Resorufin autofl inactive and A647 fluor 1.2e-09.
For COC(=O)c1ccc(NC2=CC(=O)CC(C)(C)C2)cc1 the results were TSHR agonist 0%, A488 autofl inactive, AID923 0.2%, Resorufin autofl inactive and A647 fluor 4.1e-08.
`COC(=O)CN(c1ccc(OC)cc1)S(=O)(=O)c1c(C)noc1C` gave TSHR agonist 6%, A488 autofl inactive, AID923 -0.1%, Resorufin autofl inactive and A647 fluor 6.1e-09.
O=C1CSC2(CCCCC2)N1CCO was read as TSHR agonist 2%, A488 autofl inactive, AID923 0.0%, Resorufin autofl inactive and A647 fluor 1e-09.
Screening COC(=O)c1cccc(Oc2nc3c(c(=O)n(C)c(=O)n3C)n2C(C)C)c1 returned TSHR agonist 1% and AID923 -1.1%.
For COc1ccc(-c2cc(C(=O)N3CCOCC3)no2)cc1OC the results were TSHR agonist -2%[11.4 µM], A488 autofl inactive, AID923 0.4%, Resorufin autofl inactive and A647 fluor 6e-09.
Screening CCOC(=O)NC(=O)CSc1nnnn1-c1ccc(C)cc1 returned TSHR agonist 3%, A488 autofl inactive, AID923 -2.0%, Resorufin autofl inactive and A647 fluor 2.6e-08.
For CCn1c(COc2cccc3cccnc23)nnc1SCC(=O)O the results were TSHR agonist -12% and AID923 3.1%.
Screening Cc1ccc(NC(=O)c2cccc(N3C(=O)CCC3=O)c2)nc1 returned TSHR agonist -13%, A488 autofl inactive, AID923 0.9%, Resorufin autofl inactive and A647 fluor 7.1e-09.
CN1CCN(S(=O)(=O)c2ccc(NC(=O)Cc3cccs3)cc2)CC1 was read as TSHR agonist -4%, A488 autofl inactive, AID923 2.2%, Resorufin autofl inactive and A647 fluor 1.8e-08.
For CC(C)OCCCNC(=O)c1cc2c(=O)n(C)c3ccccc3c2n1C the results were TSHR agonist inconclusive and AID923 -1.8%.
`CCC(c1nnc(SCC(=O)Nc2ccc(C(=O)Nc3ccccc3OC)cc2)o1)N(C)C` (centres undefined) gave TSHR agonist 0%, A488 autofl inactive, AID923 -1.8%, Resorufin autofl inactive and A647 fluor 3.9e-08.
`COCCn1c(=O)c2c(nc3n2CCN3c2ccc(C)cc2)n(C)c1=O` gave TSHR agonist -8%, A488 autofl inactive, AID923 0.4%, Resorufin autofl inactive and A647 fluor 2.8e-08.
CC(=O)N1[C@H](C)C=C[C@]1(Cc1ccccc1)C(=O)NCc1cc(F)cc(C(F)(F)F)c1 was read as TSHR agonist 18% and AID923 -1.9%.
O=C1C2=CC[C@H]3C(=O)N(Cc4ccc5c(c4)OCO5)C(=O)[C@@H]3[C@@H]2[C@H](O)[C@@H]2O[C@H]12 was read as TSHR agonist -2%[11.4 µM] and AID923 -0.2%[11.5 µM].
`CC1CCN(C(=O)C(NS(=O)(=O)c2cccc3nsnc23)c2ccccc2)CC1` (centres undefined) gave TSHR agonist 0%, A488 autofl inactive, AID923 -1.7%, Resorufin autofl inactive and A647 fluor 7.2e-09.
CCCN1CCN(C(=O)Cn2ncc3ccccc32)CC1 was read as TSHR agonist -10% and AID923 -2.1%.
Cc1ccccc1C(=O)NCCN=C1NS(=O)(=O)c2ccccc21 was read as TSHR agonist -9% and AID923 -0.1%.
`CCOC(=O)c1[nH]c(C)c(/C(O)=C2\C(=O)C(=O)N(CCCN(C)C)C2c2cccnc2)c1C` (centres undefined) gave TSHR agonist -6%, A488 autofl inactive, AID923 -1.4%, Resorufin autofl inactive and A647 fluor 8.1e-09.
Screening CC(C)Oc1ccc(CSc2nnc3n(C)c(=O)c4c5c(sc4n23)CCCC5)cc1 returned TSHR agonist inconclusive, A488 autofl inactive, AID923 -2.5%, Resorufin autofl inactive and A647 fluor 3.3e-08.
CCC(C)C(=O)Nc1c2c(nc3c1CCC3)CCCC2 (centres undefined) was read as TSHR agonist inconclusive, A488 autofl inactive, AID923 -1.9%, Resorufin autofl inactive and A647 fluor 8e-09.
`c1coc(-c2nn3c(Cn4nnc5ccccc54)nnc3s2)c1` gave TSHR agonist 24%, A488 autofl inactive, AID923 0.2%, Resorufin autofl inactive and A647 fluor 2.3e-08.
`COc1ccc(CC(=O)Nc2ccc(-c3noc(-c4cccc(OC)c4)n3)cc2)cc1` gave TSHR agonist -8%, A488 autofl inactive, AID923 1.2%, Resorufin autofl inactive and A647 fluor 1e-09.
Screening CCOC(=O)N1CCN(C(=O)Cc2ccc(-n3c(=O)[nH]c4ccccc4c3=O)cc2)CC1 returned TSHR agonist -6%, A488 autofl inactive, AID923 1.8%, Resorufin autofl inactive and A647 fluor 1e-09.
`COc1ccc2nc(SCc3nc(N)nc(Nc4ccccc4)n3)[nH]c2c1` gave TSHR agonist 5% and AID923 0.8%.
Screening CC(=O)OC[C@@H]1O[C@H](CCON=C(C)C)C=C[C@@H]1OC(C)=O returned TSHR agonist 1%[11.4 µM] and AID923 0.3%[11.5 µM].
For O=C(COC(=O)c1ccc[nH]c1=O)c1ccc(Cl)s1 the results were TSHR agonist inconclusive, A488 autofl inactive, AID923 0.8%, Resorufin autofl inactive and A647 fluor 2.3e-09.
For COCCNC(=O)C(c1ccc(C)o1)N(Cc1ccc(OC)cc1)C(=O)Cn1nnc2ccccc21 (centres undefined) the results were TSHR agonist 3%, A488 autofl inactive, AID923 0.5%, Resorufin autofl inactive and A647 fluor 7.7e-09.
`O=C(O)CCCC(=O)NCCc1cccc(Cl)c1` gave TSHR agonist 1%, A488 autofl inactive, AID923 -0.4%, Resorufin autofl inactive and A647 fluor 1e-09.
`CCC(C)c1ccc(NC(=O)c2cccnc2)cc1` (centres undefined) gave TSHR agonist -9%[11.4 µM] and AID923 1.8%.
